# Source: PubChem (Fisher Drug Discovery Resource Center)
# NPYLR7 ag = activates Aedes aegypti NPYLR7 receptor. HEK293T NPYLR7/Galpha15, GCaMP6s calcium fluorescence. activation, % at 10 µM. 0.15% of 270,000 active. AID 1259423; in the data active = activation above about 40%;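 note: 0% = vehicle and 100% = reference agonist at the receptor; some compounds past the cut are filed as inactive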
# NPYLR7 ag max-min = recorded beside NPYLR7 ag, whose call it bears; activation, %; measured here: Max-Min RFU normalised activation; some inactives read as strong as hits;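 span of the calcium signal over five minutes; 0% = vehicle and 100% = native peptide agonist; compound fluorescence can raise it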
# * = called active by the depositor; & = joins results of further samples. These rows are one share of the data; the hit share may differ from the screen's.
smiles	NPYLR7 ag	NPYLR7 ag max-min
CCCn1c(N)c(N(CCOC)C(=O)C(CC)CC)c(=O)[nH]c1=O	8.2	8.7
CC(=O)Nc1ccc(CC2CCN(C(=O)c3ccc(C(F)(F)F)c(F)c3)CC2)cc1	1.8	6.0
Cc1ccc(-c2nnc(CN3CCCC(Cc4nc5ccccc5[nH]4)C3)o2)n1C (stereo not drawn)	-3.3	-8.1
CC(C)NC(=O)NC(=O)CSc1nnc(-c2ccc(Cl)cc2)o1	-5.7	-12.0
CN1C(=O)N(CN2CCN(c3ccccn3)CC2)C(=O)C12CCCCC2	1.6	-2.3
COc1ccc(CN(CC(O)COCc2ccco2)C2CC2)cc1 (stereo not drawn)	-8.8	-0.4
CCOC(=O)c1ccc(OC2CC3CCC(C2)N3C(=O)c2ccc(CSCc3ccc(Cl)cc3)cc2)cc1 (stereo not drawn)	-4.4	-6.8
O=C(Cn1nc2nc(Nc3ccc(F)cc3)ccn2c1=O)N1CCCC1	-8.5	-9.9
CC(C)C(=O)NC1CCN(C(=O)C2(c3ccc(F)cc3)CCC2)CC1	3.8	3.3
C=CCNC(=O)c1cc(N2CCN(c3ccc(OC)cc3)CC2)nc2ccccc12	6.9	2.0
O=C(CCN1CCCCO1)N1CC(Oc2ccccc2F)C1	1.6	0.7
CCOC(=O)C1SC(SCC(=O)NC(C(=O)OC)C(C)CC)=NC1=O (stereo not drawn)	1.6	0.2
CN(C(=O)CC1Oc2ccccc2NC1=O)C1CCCC1 (stereo not drawn)	1.3	0.2
COc1ccc(Cl)cc1NC(=O)CC1SC(N2CCOCC2)=NC1=O (stereo not drawn)	-3.4	16.2
CC(C)C(C)NC(=O)CN1C(=O)NC(C)(c2ccc(Cl)cc2)C1=O (stereo not drawn)	-6.4	-10.0
CCOC(=O)c1cccnc1Oc1cccc(NC(=O)CCCCC2CCSS2)c1 (stereo not drawn)	-13.0	-20.6
CN(CCc1ccc(Br)cc1)C(=O)NC1CC1	18.7	9.4
Cc1cc(C(=O)Cn2c(=CC(=O)C(C)(C)C)sc(=Cc3ccsc3)c2=O)c(C)n1C	-4.5	-3.4
COc1ccc(-c2nc3cccc(C)n3c2Nc2c(C)cccc2C)cc1	5.1	7.2
CCOC(=O)c1cnc(-c2ccc(OC)cc2)nc1NCCc1ccccc1Cl	-8.3	-5.9
CCC1CN(CC(=O)N2CCN(c3ccc(C(=O)OC)cc3)CC2)Cc2ccc(Cl)cc2O1 (stereo not drawn)	19.0	5.0
O=C(c1cccc(Br)c1)N1CCN(C(C(=O)N2CCSCC2)C2CCCC2)CC1 (stereo not drawn)	1.8	22.4
COCCN(CC(=O)Nc1nc(CC(=O)N2CC(C)OC(C)C2)cs1)C(=O)c1ccccc1 (stereo not drawn)	-2.5	-7.1
O=C(CC(c1ccccc1)c1ccc2c(c1)OCO2)NCCN1CCCCC1 (stereo not drawn)	-3.3	-7.7
CCSc1nnc(NC(=O)C2CCCCC2)s1	-5.1	-7.8
CC(=O)c1[nH]c(C)c(C(=O)N2CCCC3(CNC(=O)O3)C2)c1C (stereo not drawn)	2.4	1.6
Cc1noc(NC(=O)NC2(c3cccc(Br)c3)CCC2)c1C	3.5	1.5
O=c1oc2ccccc2c(N2N=C(c3ccccc3)CC2c2ccccc2)c1[N+](=O)[O-] (stereo not drawn)	-8.1	-12.8
O=P(O)(Cc1ccccc1)Cc1ccccc1	8.1&4.4	5.7&2.7
Cc1ccc(C(=O)N(C)CCC(C)(C)O)cc1N1CCNC1=O	1.8	1.5

# Record cards, from the list above. Order of screens: NPYLR7 ag	NPYLR7 ag max-min
# `CC(=O)c1[nH]c(C)c(C(=O)N2CCCC3(CNC(=O)O3)C2)c1C` (stereo not drawn) across the screens: 2.4	1.6
# `Cc1cc(C(=O)Cn2c(=CC(=O)C(C)(C)C)sc(=Cc3ccsc3)c2=O)c(C)n1C` across the screens: -4.5	-3.4

# Further results follow:
smiles	NPYLR7 ag	NPYLR7 ag max-min
O=C(NCc1ccc(N2CCCCC2CCO)nc1)c1cc(-c2cccc(Cl)c2)n[nH]1 (stereo not drawn)	-0.1	2.0
CC(C(=O)N1CCCC(O)C1)N1CCN(c2ccc(F)cc2)CC1 (stereo not drawn)	7.6	4.4
CNC(=O)[C@@H]1[C@@H](c2ccccc2)CN2CCN(C3CCOCC3)C[C@H]12	5.8	17.9
O=C(c1ccc(NCc2ccc[nH]c2=O)nc1)N1CCC(N2CCOCC2)CC1	0.0	-2.0
Cn1c(-c2ccsc2)cc2c(Nc3ccncc3)nccc21	-4.0	-9.7
COc1cc(OC)cc(C2=NC3(CCCC3)NC2=S)c1	-1.4	-1.9
C=CCNC(=O)C(C1CCCC1)N1CCN(C(=O)C2CC2)CC1 (stereo not drawn)	-6.7	1.6
O=C1C2CCCN2C(c2ccccc2[N+](=O)[O-])N1c1nccs1 (stereo not drawn)	-4.6	-3.3
CCOC(=O)/C=C/C(=O)Nc1ccccc1C(=O)N(C)C1CCCCC1	5.2	9.5
Cc1nc(-n2nc(-c3cccs3)cc2N)[nH]c(=O)c1C	-4.9	-7.1
CC(C)(C)OC(=O)NCCCC(=O)O	6.9	10.0
CCC(C)N(Cc1nc(C)ccc1O)C1CCCC1 (stereo not drawn)	6.0	-0.7
O=C1OC(/C=C/c2ccc([N+](=O)[O-])cc2)=NC/1=C/C=C/c1ccccc1	-7.0	-12.0
CC(=O)NC1=NN(C(C)=O)C2(S1)C(=O)N(CCC(C)C)c1ccc(Br)cc12 (stereo not drawn)	7.2	5.5
O=C(NC(c1ccccc1)c1ccccc1)c1cnc2sccn2c1=O	2.3	0.1

# Three entries drawn at random from those above:
smiles	NPYLR7 ag	NPYLR7 ag max-min
O=C(NC(c1ccccc1)c1ccccc1)c1cnc2sccn2c1=O	2.3	0.1
CC(=O)NC1=NN(C(C)=O)C2(S1)C(=O)N(CCC(C)C)c1ccc(Br)cc12 (stereo not drawn)	7.2	5.5
Cc1nc(-n2nc(-c3cccs3)cc2N)[nH]c(=O)c1C	-4.9	-7.1

# New compounds follow
smiles	NPYLR7 ag	NPYLR7 ag max-min
O=C(O)CCC(=O)Nc1ccc(Oc2ccccc2-c2ccccc2)cc1	7.6	7.0
COCC1CCN(C(=O)c2ccccc2OC2CCN(C(=O)c3cccnc3)CC2)CC1	13.8	8.6
CCOC(=O)C1=C(C)NC2=C(C(=O)CCC2)C1c1cc2c(cc1Cl)OCO2 (stereo not drawn)	6.6	9.4
O=C(NCCn1cccc1)c1ccc(Cl)cn1	-1.0	-3.4
O=C(c1cccc([N+](=O)[O-])c1)N1CCN(C(C(=O)N2CCc3ccccc3C2)C2CCCC2)CC1 (stereo not drawn)	-4.7	-1.0
Cc1ccccc1C(NC1CCN(c2ccc(NC(=O)c3cnccn3)cc2)CC1)c1ccncc1 (stereo not drawn)	1.4	-2.6
CC(C)Cn1c(N2CCN(Cc3ccc(F)cc3)CC2)nc2c1c(=O)[nH]c(=O)n2C	2.8	-2.2
COc1ccc(C(=O)Nc2c(C)nc3cc(C)ccn3c2=O)cc1OC	2.1	-1.0
Cc1noc2nc(C3CC3)cc(C(=O)N3CCC4(CCCO4)CC3)c12	9.7	6.1
Cc1nn(CC(=O)NC2CCCCC2)c(C)c1S(=O)(=O)NC(C)(C)C	3.3	3.9
CCCCC(=O)Nc1nnc(CC(C)C)s1	8.0	5.8
COC(=O)N(C)[C@@H]1[C@@H](O)C[C@@H]2C[C@H](c3ccccn3)OC[C@@]21O	0.0	-1.3
Cc1sc2ncn(C(C)C(=O)OCc3ccccc3)c(=O)c2c1C (stereo not drawn)	-5.6	-8.9
COc1ccc(OC)c(CNC(=O)CCC2(Cc3ccc(OC)c4ccccc34)CCC(=O)N2)c1 (stereo not drawn)	17.4	1.9
N#Cc1ccc(NC(=O)C(=O)NCc2ccccc2CO)cc1	-1.2	9.9

# Continuation.
structure	NPYLR7 ag	NPYLR7 ag max-min
CCCCCCCCCCCCCC(=O)N1CCc2nc(Cc3ccccc3OC)nc(N3CCOCC3)c2C1	31.6	26.1
CCNC(=O)NCCc1ccccc1Br	4.7	7.1
CC(C(=O)Nc1ccc(Cl)cc1F)N1CCc2sccc2C1 (stereo not drawn)	13.7	18.5
CCOC(=O)Cn1c(=NC(=O)c2ccc3ncsc3c2)sc2cc(S(N)(=O)=O)ccc21	3.2	3.1
C=CCn1c(SCC(=O)NCC2CCCO2)nc2sc3c(c2c1=O)CCCC3 (stereo not drawn)	-1.4	-6.1
CCC1NCCc2sccc21 (stereo not drawn)	1.2	1.8
COc1ccc(F)c(F)c1CN1CCC2(CCNCC2)C1	9.7	5.4
N#Cc1ccsc1NC(=O)COC(=O)CC1Sc2ccccc2NC1=O (stereo not drawn)	3.9	3.8
Cc1sc(N)c(C(=O)c2cccc(C(F)(F)F)c2)c1C	-1.3	-6.5
CCOc1ncccc1CN1CCC(C(=O)NCCc2cccc(OC)c2)CC1	-5.4	-10.6
CCCCC1C=CCN1C(=O)c1cnc(C(C)C)[nH]c1=O (stereo not drawn)	0.2	-0.5
O=C(c1ccc([N+](=O)[O-])s1)N(CCCN1CCOCC1)c1nc2c(F)cccc2s1	-3.8	-10.1
Oc1ccc(Nc2nc(-c3ccc(Cl)cc3)cs2)cc1	-2.7	-4.0
Cc1ccc(CNC(=O)NCc2ccc3c(c2)OCO3)n1C	0.2	-0.1
COc1ccc(S(=O)(=O)n2nnc3ccccc32)c2ccccc12	7.7	6.3
Cc1sc2nc(CN3CC(C)OC(C)C3)[nH]c(=O)c2c1C (stereo not drawn)	-1.1	-1.9
COC(=O)c1sc(NC(=O)CCCCCN2C(=O)c3ccccc3C2=O)c(C(=O)OC)c1C	-6.8	-8.2
C#CCNC(=O)c1cc(N2CCCC(C)C2)nc2ccccc12 (stereo not drawn)	3.7	-1.5
CS(=O)(=O)c1ccc(NS(=O)(=O)c2cccc(Br)c2)cc1	-3.0	-3.7
N#Cc1ccc(OS(=O)(=O)c2ccc(F)cc2)cc1	1.0	-3.2
Cc1cc(C)c(Cn2ccnc2CN(CC(C)C)C(=O)c2ccc(Cl)cc2)c(C)c1	17.3	23.2
COc1ccc(OC)c2sc(N(CCCN(C)C)C(=O)c3cc(Cl)sc3Cl)nc12	4.0	1.2
COc1cc(CN(CCC(C)C)CC(O)COc2ccccc2C)cc(OC)c1 (stereo not drawn)	2.4	10.5
c1cc(-c2ccc(CN3CCC(c4nnc5n4CCCCC5)CC3)o2)[nH]n1	9.6	8.1
CC(C)NC(=O)c1cc(C(C)C)nc2ccccc12	-0.6	0.2
COc1ccc2c(c1OC)C(c1ccccc1)(c1ccccc1)OC2	-3.7	14.4
CN(Cc1ccc2nsnc2c1)Cc1cc(-c2ccncc2)no1	1.3	0.1
CC(CCC1CCCCC1)NC(=O)NCC1CCS(=O)(=O)C1 (stereo not drawn)	2.3	-0.4
COCCCn1c(CN2CCCO2)cnc1S(=O)(=O)C1CCCC1	16.2	6.2
O=C(CC1CCS(=O)(=O)C1)Nc1ccc(-c2cn3ccsc3n2)cc1 (stereo not drawn)	0.2	-0.3
CCc1ccc(S(=O)(=O)c2cnc(SCC(=O)Nc3ccc(C)c(Cl)c3)[nH]c2=O)cc1	-3.9	-7.9
COc1cccc(Cc2nsc(N3CCCC(C(=O)NC(Cc4ccccc4)c4ccccc4)C3)n2)c1 (stereo not drawn)	14.2	13.4
Cc1nnc(CNC(=O)CN2CCN(c3ccc4c(c3)OCCO4)C2=O)o1	-2.3	-3.3
CC(C)C(CNc1ncc(C#N)cc1Cl)N1CCOCC1 (stereo not drawn)	-13.3	-16.5
COc1cc(-c2onc(C)c2C(=O)NCc2ccsc2)cc(OC)c1OC	7.6	10.5
COC(=O)c1cccc(CC2(C)C(=O)Nc3ccc(-c4cccc(C(C)=O)c4)cc32)c1 (stereo not drawn)	2.5	4.7
COc1ccc(-c2nnc(SCc3cccc(C#N)c3)o2)cc1	1.8	-0.6
O=C(COc1ccc(C(=O)c2ccc(Cl)cc2)cc1)NCC1CCCS1 (stereo not drawn)	1.3	0.2
CC(C)CSc1nnc(C2CCCCC2)o1	-0.6	-7.9
Cc1cn2c3c(=O)n(CCCO)c(=O)n(C)c3nc2n1-c1ccc(C(F)(F)F)cc1	4.1	0.2
Cc1cc(S(=O)(=O)NCCC2=CCCCC2)ccc1Br	8.4	6.6
Cn1c(=O)c2c(nc(NCCO)n2C)n(C)c1=O	4.1	4.1
COC(=O)[C@H]1[C@H]2C[C@H]3c4[nH]c5ccccc5c4CCN3C[C@@H]2CC[C@@H]1O	-3.0	-8.2
NS(=O)(=O)c1ccc(NCCCn2ccnc2)c([N+](=O)[O-])c1	3.8	8.2
COc1cc(C2Nc3ccccc3N=C3CC(C)(C)CC(=O)C32)cc(OC)c1OC(C)=O (stereo not drawn)	-3.5	-6.2
Cc1c(-c2ccccc2)sc(NC(=O)CCl)c1C(=O)N1CCOCC1	12.0	16.7
CCOC(=O)CC1CCCCN1Cc1cn(C)nc1-c1ccc2c(c1)OCCO2 (stereo not drawn)	14.0	4.5

# By substructure: the compounds so far containing a cyano group (5)
structure	NPYLR7 ag	NPYLR7 ag max-min
N#Cc1ccc(NC(=O)C(=O)NCc2ccccc2CO)cc1	-1.2	9.9
N#Cc1ccsc1NC(=O)COC(=O)CC1Sc2ccccc2NC1=O (stereo not drawn)	3.9	3.8
N#Cc1ccc(OS(=O)(=O)c2ccc(F)cc2)cc1	1.0	-3.2
CC(C)C(CNc1ncc(C#N)cc1Cl)N1CCOCC1 (stereo not drawn)	-13.3	-16.5
COc1ccc(-c2nnc(SCc3cccc(C#N)c3)o2)cc1	1.8	-0.6
